Compound activity as filed in PubChem BioAssay.
VACV E9 pol inh – inhibitors of vaccinia virus processive DNA synthesis (E9 polymerase); in vitro processive DNA synthesis, absorbance read-out; stronger effect = lower value; some inactives read as strong as hits; 46,000 compounds, 0.94% hits; normalized absorbance, % (no concentration beside the values); AID 493162;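 active means replicate mean up to 90% and picked by the depositor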;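 further: 100% = median of the test wells of a plate; 100 nL library stock went into each well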
Numbers without * were called inactive.

SMILES	VACV E9 pol inh
CCCNC(=O)c1ccc(CS(=O)c2ccc(Br)cc2)o1 (stereo unspecified)	100
CCc1ccc(C=NN2CCN(Cc3ccccc3)CC2)cc1	100
CCCNC(=O)N(C)c1nncnc1C(=O)NC	100
Cc1cccc(C)c1N1C(=O)CC(N2CCSCC2)C1=O (stereo unspecified)	109
COc1ccc(C(=O)Nc2nc(-c3ccc(C)cc3)cs2)c(OC)c1	98
CCc1cccc(C)c1Nc1c(-c2ccccc2O)nc2ncccn12	105
CCOc1ccc2cc(Br)ccc2c1	103
Oc1ccccc1C1=Nc2ccccc2N=C(c2ccc(Cl)cc2)C1	100
CCN(CC)CCCNc1nc(Cl)nc(Nc2ccc(F)cc2F)n1	100
C/S(=N\C(=O)Nc1ccc(Cl)cc1)c1sc(Cl)c2c1C(=O)CCC2 (stereo unspecified)	112
OC(COc1ccc(Br)cc1)CN1CCCN(c2nc3ccc(Cl)cc3s2)CC1 (stereo unspecified)	102
CCN(CC)c1ccc(C(=O)OCC(=O)N2CCc3ccccc32)cc1	100
Cc1cccc(N(C)S(=O)(=O)c2ccc3c(c2)OCC(=O)N3)c1	100
O=C1CSC(=NCc2ccccc2)N1	102
CN(C)N=Nc1ccc(S(=O)(=O)NC(=O)Cc2ccccc2)cc1	86
Cc1cccc(NC(=O)c2ccc(=O)[nH]c2)c1	101
NC1=NC(=O)C(CC(=O)Nc2ccccc2)S1 (stereo unspecified)	99
CC1CCC(C(C)C)C(OCC[N+](C)(C)C)C1 (stereo unspecified)	100
Cc1nn(CC(O)c2ccccc2)c(C)c1Br (stereo unspecified)	100
CCC(=O)Nc1cc(C(=O)OCC(=O)c2cccs2)ccc1C	96
CCCCC1SC(/N=C/c2ccc(Cl)cc2)=NNC1=O (stereo unspecified)	99
O=C(CSc1nc2c([nH]c3ccccc32)c(=O)n1-c1cccc(Cl)c1)N1CCCCCC1	101
CC(C)Nc1nc(NC(C)C)nc(Sc2nn(C)c(=S)s2)n1	92
O=C(Cn1c(=O)oc2ccccc21)Nc1ccccc1Cl	97
C/C(Cc1ncn(-c2cc(C)on2)n1)=N\O	110
CCn1c(=NC(=O)c2ccc(N(C)C)cc2)sc2cc(Cl)ccc21	97
CCCC(C(=O)OCCN(CC)CC)(c1ccccc1)c1ccccc1	100
Cc1cc(C)n(-c2nc3ccccc3nc2NCCc2ccccc2)n1	82
CCOc1ccc2nc(SCC)[nH]c2c1	127
O=C(O)c1[nH]c2ccc(Cl)cc2c1CC(=O)N1CCC2(CC1)OCCO2	94
O=C(CCC1CCCC1)OCC(=O)N1CCOCC1	97
O=C(CCn1c(=O)oc2ccccc21)N1CCN(c2ccc(F)cc2)CC1	100
O=C(O)C1CC(=O)N(c2cccc3ccccc23)C1 (stereo unspecified)	93
CC(C)(C#N)N1CCN(C(c2ccccc2)c2ccccc2)CC1	84
O=S(=O)(c1cccs1)N1CCN(Cc2ccccc2)CC1	114
NC(=O)c1ccccc1NC(=O)CSc1ccc2ccccc2c1	97
Cc1noc(-c2ccccc2OC(=O)c2ccccc2)n1	100
Cc1cc(C)nc(NC(N)=NCc2ccccc2)n1	98
NC(=O)c1cc(S(=O)(=O)NC2CCCCCCC2)cs1	98
CC(C)C1(C)C(=O)N=C2c3ccccc3C(=O)N21 (stereo unspecified)	102
COC(=O)CCC(=O)Nc1ccccc1	101
COc1ccccc1OCc1nc(C#N)c(N2CC(C)CC(C)C2)o1 (stereo unspecified)	110
COc1ccc(/C=C/C(=O)O)cc1S(=O)(=O)N1CCCCC1	106
Cc1nc2c(C(=O)NCCC(C)C)c[nH]n2c(=O)c1Cl	90
CC(C)(C)C(=O)Nc1c2c(nn1-c1cccc(Cl)c1)CS(=O)C2 (stereo unspecified)	102
COc1ccc(-c2cc(-c3ccc(Br)cc3)[nH]c(=O)n2)cc1	100
O=C(Nc1ccc(-c2nc3ccccc3[nH]2)cc1)c1c(F)cccc1F	101
CC(=O)OC(C#N)[C@H]1O[C@@H]2OC(C)(C)O[C@@H]2[C@H]1OC(C)=O (stereo partly specified)	107
OCC(O)C1OC(c2ccccc2)OCC1O (stereo unspecified)	101
CCCCc1c(C)nc(SCc2ccccc2)[nH]c1=O	100
O=C(Nc1ccc(F)c(F)c1)c1cc(S(=O)(=O)NCc2ccc(F)cc2)ccc1F	103
c1ccn2cc(CSC3=NCCS3)nc2c1	99
CN(CC(O)COc1ccc(Br)cc1)C1CCCCC1 (stereo unspecified)	100
O=C(/C=C/c1ccccc1)Nc1ccc(S(=O)(=O)Nc2nccs2)cc1	119
COc1cccc(C(=O)N2c3ccccc3C(Nc3ccccc3)CC2C)c1 (stereo unspecified)	100
C1=CC2CCC(C1)N2CCN1C2C=CCC1CC2	101
COC(=O)Nc1nc2ccc(Sc3ccccc3)cc2[nH]1	100
CCN(CC)C(=O)Oc1ccc(Br)cc1C(=O)Nc1cc(Cl)cc(Cl)c1	102
C=C1N(c2ccccc2)C(=O)OC1(C)CC (stereo unspecified)	100
CC(C)(C)c1ccc(Cn2c(=N)n(CCO)c3ccccc32)cc1	100
The listing continues.
SMILES	VACV E9 pol inh
CC1CCC(C(C)C)C(OC(=O)CN2C(=O)c3ccccc3C2=O)C1 (stereo unspecified)	100
CC1CCN(CN2C(=S)SC3=NC(=O)CCCN32)CC1	102
CC(NC(=O)C1CCCN(c2nnc(-n3cccc3)s2)C1)c1ccc2c(c1)OCCO2 (stereo unspecified)	98
COc1ccc(CCNC(=O)Cc2c(SC)c3ccccc3n2Cc2ccccc2)cc1OC	99
CCOC(=O)NC(=S)Nc1ccc(NC(=O)c2cc(Cl)ccc2O)c(Cl)c1	99
CCN(CC)CC(=O)Nc1cc(C)nn1-c1ccccc1	95
CCc1ccc(NC(=O)c2ccc(NC(=O)C3CCCO3)cc2)cc1 (stereo unspecified)	86
CCN(CC)C(=O)C12CC3CCC(CC(C3)C1)C2	100
CC1=CC(C(C#N)C#N)C=C(c2ccccc2)O1 (stereo unspecified)	102
CC(NC(=O)COc1ccccc1)C(=O)O (stereo unspecified)	93
CCCn1cnc2scc(-c3ccc(OC)cc3)c2c1=O	104
CC1=CC(C)(C)N=C(Nc2nc(C)c3cc(C)cc(C)c3n2)N1	50*
Nc1ccc(-c2nc3cc(Cl)ccc3o2)c(O)c1	100
O=C(O)C(Cc1cnc[nH]1)NC1CNN=C1c1ccc(Cl)cc1 (stereo unspecified)	99
c1ccc(N2CN3CN2CN3c2ccccc2)cc1	100
Cn1cc(S(=O)(=O)N2CCCC2)cc1C(=O)NCc1ccccc1	92
CC(C)(C)CC(=O)NCc1ccccn1	97
CCC(C)NC(=O)c1ccc2c(c1)ncn2-c1cc(C)cc(C)c1 (stereo unspecified)	100
CC(CO)NC(=O)c1cc2ccccc2oc1=O (stereo unspecified)	100
CCCCCCCCCCCCCCCCCC(=O)OC(CC(=O)O)C[N+](C)(C)C (stereo unspecified)	100
C=CCc1c(C)nc(C)nc1NCCO	95
CC1CCN(S(=O)(=O)c2ccc3c(c2)OCC(=O)N3)CC1	94
OCCS	99
Cc1ccc2nc(SCC(=O)O)[nH]c2c1	101
O=C(O)CCCN=C(c1ccc(Cl)cc1)c1cc(F)ccc1O	100
CCOC(=O)CSc1ncc(-c2ccc(Cl)cc2)[nH]1	96
COc1ccc(-n2c(-c3ccc(C(C)(C)C)cc3)n[nH]c2=S)cc1	100
COC(=O)C(Cc1c[nH]c2ccccc12)NS(=O)(=O)c1ccc(CNC(=O)c2ccccc2)s1 (stereo unspecified)	108
CN(Cc1ccccc1)C(=O)COC(=O)C1CC2C=CC1C2 (stereo unspecified)	98
CN(C)CCN1C(=O)C(O)=C(C(=O)c2cc3ccccc3o2)C1c1ccccc1 (stereo unspecified)	108
Nc1ccc(C(=O)OCC(=O)NC23CC4CC(CC(C4)C2)C3)cc1	100
CC1(Cc2cn(CCC(=O)O)c3ccccc23)OCCO1	92
CCc1cc2c(cc3c(=O)n(CC(=O)NC(C)c4ccc5c(c4)OCCO5)nc(CC)n32)s1 (stereo unspecified)	102
O=C(O)CN1C(=O)/C(=C\c2ccsc2)SC1=S	97
CCCC(C(=O)O)N1C(=O)/C(=C/c2ccc(O)c(OCC)c2)SC1=S (stereo unspecified)	82
O=C(O)CC(c1cccc(O)c1)N1Cc2ccccc2C1=O (stereo unspecified)	108
CCCC(C)C(=O)Nc1nnc(C(C)C)s1 (stereo unspecified)	94
CS(=O)(=O)N1CCN=C1SCc1cccc(F)c1	106
O=C1c2ccccc2C(=O)C1(CO)c1ccccc1	98
CCCNC(=O)c1ccc(-n2c(=S)[nH]c3ccccc3c2=O)cc1	102
O=C(O)C(Cc1ccccc1)N1Cc2ccccc2C1=O (stereo unspecified)	109
Brc1cccc(-c2nnc(Nc3ccccc3)o2)c1	101
COCc1nc2ccccc2n1CCOc1ccccc1	97
Cc1ccc(C(=O)Nc2nnc(-c3ccccc3)s2)cc1	100
COc1ccc(Cl)c(OC)c1C(=O)NC(=O)Nc1c(C)cccc1C	110
Cc1nc2c(cnn2-c2ccccc2)c(=O)n1NC(=O)Nc1ccc(Cl)c(Cl)c1	101
Cc1c(O)ccc2c(=O)c(-c3ccc(F)cc3)c(C(F)(F)F)oc12	101
Cc1cc(C)c(S(=O)(=O)Nc2cc(SCC(=O)O)c(O)c3ccccc23)cc1C	100
CN(C)CC1CCCCC1OC(=O)c1ccc(Br)o1 (stereo unspecified)	100
CN1C(=O)/C(=C/c2c(N(C)C)nc3ccccn3c2=O)SC1=S	100
C=CCNC(=O)c1cc2c(=O)n3cccc(C)c3nc2n(CC2CCCO2)c1=N (stereo unspecified)	101
COc1c2c(nc3ccccc13)OC(C(C)(O)CO)C2 (stereo unspecified)	100
O=C(NC1CCCCNC1=O)c1cccnc1Oc1ccc(Cl)cc1 (stereo unspecified)	94
O=C(Nc1ccccc1)Nc1nnc(C(F)(F)F)s1	109
CCOC(=O)c1sc(Sc2ccc(C(F)(F)F)cn2)c2c1CC(C)(C)CC2=O	91
O=C(CCC(=O)N1CCSc2ccccc21)NCC1CCCO1 (stereo unspecified)	100
FC(F)(F)c1cccc(-c2nc3ccccn3n2)c1	97
CCCNC(=O)Cc1ncn[nH]1	100
CC(C)(C)C(=O)COC(=O)c1cc(Cl)cc(Cl)c1	100
O=C(c1cc2c(s1)-c1ccccc1CC2)N1CCN(Cc2ccccc2)CC1	95

Next section, starting with the last five of the part before.
SMILES	VACV E9 pol inh
O=C(CCC(=O)N1CCSc2ccccc21)NCC1CCCO1 (stereo unspecified)	100
FC(F)(F)c1cccc(-c2nc3ccccn3n2)c1	97
CCCNC(=O)Cc1ncn[nH]1	100
CC(C)(C)C(=O)COC(=O)c1cc(Cl)cc(Cl)c1	100
O=C(c1cc2c(s1)-c1ccccc1CC2)N1CCN(Cc2ccccc2)CC1	95
Cc1ccc(-c2ccc(S(=O)(=O)N3CC(C)OC(C)C3)cc2)cc1 (stereo unspecified)	94
CCc1nc2ccccc2c(C(=O)OCC(N)=O)c1C	103
CCc1c(C(=O)c2ccc(OC)cc2)oc2c(C)c3oc(=O)cc(C)c3cc12	94
CCc1ccc(NC(=O)CSc2nc3ccccc3c(=O)n2CCc2ccccc2)cc1	102
Cc1ccc(Nc2cc(-n3nc(C)cc3C)nc(-c3ccccc3)n2)cc1	103
CCc1ccccc1NC(=O)CSc1nncn2c1cc1sccc12	100
CC(=O)Nc1nonc1NC1=CCCCC1	100
CN(C(=O)c1ccccc1)c1ccc(OCC(=O)O)cc1	102
CCN(CC)CC(O)Cn1c2c(c3cc(C)ccc31)CCCC2 (stereo unspecified)	92
CCN1C(=O)C2NN=C(C(=O)c3nc(Cl)ccc3Cl)C2C1=O (stereo unspecified)	101
CC(C(=O)NC1CCCC1)n1sc2ccccc2c1=O (stereo unspecified)	100
CC(=O)Nc1ccc(N2C(=O)CSC2c2c(F)cccc2Cl)cc1 (stereo unspecified)	97
CCNS(=O)(=O)c1cc(-c2nn(C)c(=O)c3ccccc23)ccc1C	100
CC1=Nc2ccc(Br)cc2C(c2ccccc2)N1CC(=O)NN (stereo unspecified)	100
CSc1ccc(Cl)c(C(=O)OCC(N)=O)c1	84
OCCCn1c(-c2ccccc2)csc1=Nc1ccccc1	100
CC(C)CC(=O)NC(=S)Nc1cccc2nsnc12	98
CCc1nnc(SC(CC)C(=O)N2CCCCCC2)c2cc3sccc3n12 (stereo unspecified)	95
Clc1ccc(Nc2nc3ccccc3s2)cc1	81
COc1ccc(OC)c2c(N3CCOCC3)cc(C(F)(F)F)nc12	100

An excerpt from above in order of length of the SMILES, lowest first.
SMILES	VACV E9 pol inh
CCCNC(=O)Cc1ncn[nH]1	100
CC(=O)Nc1nonc1NC1=CCCCC1	100
Clc1ccc(Nc2nc3ccccc3s2)cc1	81
CSc1ccc(Cl)c(C(=O)OCC(N)=O)c1	84
CC(C)CC(=O)NC(=S)Nc1cccc2nsnc12	98
CC(C(=O)NC1CCCC1)n1sc2ccccc2c1=O (stereo unspecified)	100
O=C(CCC(=O)N1CCSc2ccccc21)NCC1CCCO1 (stereo unspecified)	100
CCc1ccccc1NC(=O)CSc1nncn2c1cc1sccc12	100
CCN(CC)CC(O)Cn1c2c(c3cc(C)ccc31)CCCC2 (stereo unspecified)	92
CC1=Nc2ccc(Br)cc2C(c2ccccc2)N1CC(=O)NN (stereo unspecified)	100
COc1ccc(OC)c2c(N3CCOCC3)cc(C(F)(F)F)nc12	100
CC(=O)Nc1ccc(N2C(=O)CSC2c2c(F)cccc2Cl)cc1 (stereo unspecified)	97
CCc1nnc(SC(CC)C(=O)N2CCCCCC2)c2cc3sccc3n12 (stereo unspecified)	95
Cc1ccc(Nc2cc(-n3nc(C)cc3C)nc(-c3ccccc3)n2)cc1	103
O=C(c1cc2c(s1)-c1ccccc1CC2)N1CCN(Cc2ccccc2)CC1	95
CCc1ccc(NC(=O)CSc2nc3ccccc3c(=O)n2CCc2ccccc2)cc1	102
CCc1c(C(=O)c2ccc(OC)cc2)oc2c(C)c3oc(=O)cc(C)c3cc12	94

The listing continues:
SMILES	VACV E9 pol inh
C=CCOc1ccccc1CNc1ncn[nH]1	84
CCC(Nc1n[nH]c(=O)[nH]c1=O)C(=O)OC (stereo unspecified)	99
O/N=C(\c1ccccc1)C12CC3CC(CC(C3)C1)C2	100
N#CCOC(=O)c1cc(-c2ccccc2)nc2ccccc12	101
CC1Cc2ccccc2N1C(=O)C1CCCN1S(=O)(=O)c1cccc2nsnc12 (stereo unspecified)	98

This is a subset; count on the stated rates, not on these rows.
